Rce1 inhib: yeast Rce1p protease inhibitors, primary screen, biochemical, fluorescence, cell-free homogeneous; yeast membranes, quenched prenylated peptide cleavage fluorescence; AID 2563, 2010; CAAX prenyl protease 2 (Saccharomyces cerevisiae (strain ATCC 204508 / S288c)), Q03530; calls only; hit rate 0.27% among 290,000;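 active = fall in fluorescence gain of 50% or more versus controls, with final raw signal at or below 3038400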;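 note: plate controls were neutral control wells for no effect and wells lacking membranes for full effect; tested at 10 µM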
Target sequence (Q03530 whole entry, looked up): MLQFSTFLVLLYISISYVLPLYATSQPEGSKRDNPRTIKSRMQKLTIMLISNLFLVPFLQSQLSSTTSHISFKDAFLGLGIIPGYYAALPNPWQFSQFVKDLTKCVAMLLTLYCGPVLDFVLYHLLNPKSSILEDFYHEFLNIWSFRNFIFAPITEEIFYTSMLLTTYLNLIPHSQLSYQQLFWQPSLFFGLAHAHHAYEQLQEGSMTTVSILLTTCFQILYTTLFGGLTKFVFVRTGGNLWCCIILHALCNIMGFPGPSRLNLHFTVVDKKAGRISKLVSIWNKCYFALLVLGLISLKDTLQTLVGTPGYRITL
Yeast UUG start: modulators of yeast start codon fidelity, primary screen, whole organism, S. cerevisiae, single point, plate reader; hit rate 0.13% among 350,000; S. cerevisiae UUG-firefly luciferase reporter, luminescence/redox ratio; activity score, % at 18.7 µM;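 active = replicate mean at a twofold rise or more, about +100% in these data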;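 note: firefly luciferase made from a UUG start codon reports start codon fidelity; reporter light over untreated wells divided by growth signal over untreated wells; some hits fall short of that in this replicate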
HIV Env fusion: inhibitors of HIV-1 Env-driven cell-cell fusion, primary screen, HeLa-JRFL effector, CEM21 target cells, luciferase; AID 651610, 2012; hit rate 1.1% among 360,000; inhibition, % at 12.3 µM;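 active = mean replicate inhibition score of at least 50 and every replicate individually at or above 50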;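 note: 0% = plate neutral controls and 100% = maraviroc near 300 nM; one replicate is shown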
CSC inhib: cancer stem cell viability inhibitors, primary screen, luminescence; hit rate 1.1% among 300,000; cancer stem cell-like cells viability; inhibition, % at 7.5 µM;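 active = mean at 75% or more and at least half the replicates too; tested in HMLE shEcad cells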;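 note: 0% = median of negative and 100% = median of positive control wells; the first replicate is given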
PABP polyA inh: PABP poly(A) RNA binding inhibitors, primary screen, biochemical, fluorescence polarization, uHTS | Polyadenylate-binding protein 1 (Homo sapiens), P11940 | inhibition, % at 35 µM | hit rate 1% among 290,000 | AID 2014, 2009;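 active = 50% or more with normal probe brightness, or confirmed in later tests; about a fifth of its hits are not listed in these tables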;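 note: calls also rest on retests at 20 µM and on dose response follow-up; controls were probe without protein and protein plus probe with vehicle; some compounds called inactive have numbers as strong as hits; many hits fall short of the cut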
Target sequence (P11940 whole entry, looked up): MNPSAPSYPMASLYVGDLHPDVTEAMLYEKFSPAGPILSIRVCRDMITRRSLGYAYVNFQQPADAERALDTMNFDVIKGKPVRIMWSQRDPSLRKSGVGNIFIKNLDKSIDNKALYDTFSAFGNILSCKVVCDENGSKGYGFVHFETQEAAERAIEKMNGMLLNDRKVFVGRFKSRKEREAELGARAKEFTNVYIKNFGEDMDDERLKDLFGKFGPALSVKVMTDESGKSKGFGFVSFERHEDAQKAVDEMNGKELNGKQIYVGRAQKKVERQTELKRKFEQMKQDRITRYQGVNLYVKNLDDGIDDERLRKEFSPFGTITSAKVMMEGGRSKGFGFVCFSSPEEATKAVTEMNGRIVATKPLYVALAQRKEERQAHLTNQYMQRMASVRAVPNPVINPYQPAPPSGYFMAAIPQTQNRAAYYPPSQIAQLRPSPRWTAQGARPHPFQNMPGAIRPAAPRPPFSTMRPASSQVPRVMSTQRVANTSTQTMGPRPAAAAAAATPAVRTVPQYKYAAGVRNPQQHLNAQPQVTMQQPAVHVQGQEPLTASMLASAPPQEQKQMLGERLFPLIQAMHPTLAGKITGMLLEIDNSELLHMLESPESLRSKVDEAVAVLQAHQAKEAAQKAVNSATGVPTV
eIF4H FP inh: human eIF4H binding inhibitors, primary screen, translation initiation inhibitor project, biochemical, uHTS, fluorescence polarization; Eukaryotic translation initiation factor 4H (Homo sapiens), Q15056; eIF4H fluorescence polarization binding assay; inhibition, % at 35 µM; hit rate 0.94% among 290,000; AID 2012, 2009;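 active = 50% or more with normal probe brightness, or confirmed in later tests; about a fifth of its hits are not listed in these tables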;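 note: calls also rest on retests at 20 µM and on dose response follow-up; 0% = protein and probe with vehicle and 100% = probe without protein; strong numbers were not always called active; many hits fall short of the cut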
MT1-MMP act inh: blockers of MT1-MMP proenzyme processing, primary screen, HT1080 RFP-PRO-GFP cells, GFP/RFP fluorescence. hit rate 0.061% among 360,000. GFP/RFP ratio fluorescence, overnight; percent of plate control window, DMSO zero. Matrix metalloproteinase-14 (Homo sapiens), P50281. AID 651647, 2012. GFP/RFP ratio change, % at 20 µM;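 active = GFP/RFP ratio change of at least 30% with cell ATP level not reduced by more than half and red fluorescence within 50% of control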; note: strong numbers were not always called active
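system = RFP-PRO-GFP reporter HT1080 cells | dosing = 20 µM single dose, 1% DMSO | timing = overnight cell settling, then overnight compound exposure, 37 °C, 5% CO2 | read-out basis = GFP/RFP fluorescence ratio | controls = DMSO and RFP-L50D-GFP cell wells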
eIF4H FP inh retest: recorded beside eIF4H FP inh, whose call it bears; inhibition, %; compound at 20 µM; confirmation average;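 mean of two retest wells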
PABP polyA inh retest: also measured in PABP polyA inh; calls as there; inhibition, %; compound at 20 µM; confirmation repeats;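 mean of two retest wells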
MT1-MMP act inh RFP: also measured in MT1-MMP act inh; calls as there; RFP signal change, %; measured here: RFP expression control read;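 0 = vehicle wells; hits needed this value within 50% of zero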
* marks the source's active call; other numbers are inactive results; i = inactive; / = no result given; & = joins results of further samples; ! = not active in a repeat; [ ] = dose if it differs, or a comment. These rows are one share of the data (hit frequency here may not be typical).

SMILES	Rce1 inhib	Yeast UUG start	HIV Env fusion	CSC inhib	PABP polyA inh	eIF4H FP inh	MT1-MMP act inh	MT1-MMP act inh RFP	others
c1coc(Cn2c(-c3ccco3)nc3ccccc32)c1	i	-8	/	-4	27	24	-4	-2
C=CCn1c(SCc2ccccc2Cl)nnc1-c1sc2nc(C)cc(C)c2c1N	i	/	4	16	6	-7	5	-5
CN(C)/C=C1/C=C(C=O)OC1=O	i	/	-9	-6	-5	-6	-3	6
C=C(C)CNC(=S)N/N=C/c1ccco1	i	-40	-10	-9	0	-7	4	3
C[C@H](NC(=O)C1CCN(S(=O)(=O)c2ccccc2)CC1)C(=O)NCc1ccccn1	i	-20	15	-1	4	-2	-2	3
C[C@H](CO)N1C[C@H](C)[C@H](CN(C)C(=O)Nc2ccc(F)cc2)OCc2ccccc2-c2c(n(C)c3ccccc23)C1=O	/	11	90*![16.7 µM]	/	/	/	-7	-6
CCN(CC(=O)NC1CCS(=O)(=O)C1)C(=O)COc1ccccc1-c1ccccc1 (stereo not given)	i	-7	-100	20	/	/	-4	0
C[C@H](CO)N1C[C@H](C)[C@H](CN(C)C(=O)c2ccccn2)Oc2cc(C#Cc3ccc(F)cc3)ccc2S1(=O)=O	/	44&21&-2	0&4[16.7 µM]	/	/	/	-2	-4
COc1ccc(C2C(C#N)=C(N)N(N(C)C)C3=C2C(=O)CC(C)(C)C3)cc1 (stereo not given)	i	-18	-11	34	-10	-3	-3	0
Cc1c(C(=O)N2CCN(c3ncccn3)CC2)oc2ccc(F)cc12	/	-9	-8	-12	/	/	-4	-3
Cc1ccc(/C=N/NC(=O)C[n+]2ccccc2)o1	i	/	3	21	19	-3	2	2
CCOC(=O)CNC(=O)CSc1nc(C(C)C)nc2c1cnn2-c1ccccc1	/	-12	-14	/	/	/	-2	3
COc1ccc(C2Nc3ccccc3C(=O)N2NS(=O)(=O)c2ccccc2)cc1 (stereo not given)	i	/	3	7	-5	-5	-4	-4
C/C(=N\NC(=O)c1cc([N+](=O)[O-])cc([N+](=O)[O-])c1)c1ccco1	/	/	12	16	4	6	7	5
CC(=O)C(C)Oc1ncn(-c2ccccc2)n1 (stereo not given)	i	-2	/	-5	-2	-2	-3	6
O=C(c1ccoc1)N1CCC2(CC1)Oc1ccc(Cl)cc1C(=O)C21CC(c2cccnc2)=NO1 (stereo not given)	i	-10	-18	-11	11	2	-3	-5
Cc1c(NN=C(C#N)C#N)c(=O)n(-c2ccccc2)n1C	i	-13	14	-5	4	-3	-1	2
COc1cc(OC)c(NS(=O)(=O)c2cn(C)cn2)cc1Cl	i	-15	-11	-2	-2	-5	2	2
CC(C)c1ccccc1NC(=O)c1cnccn1	i	0	22	-5	2	-2	3	3
COc1ccc(CNCC(O)(c2ccc(F)cc2)c2ccc(F)cc2)cc1	i	/	12	15	-15	-3	-3	-3
O=C(COC(=O)c1ccc2ccccc2n1)c1ccccc1	i	-35	4	0	10	-5	0	4
CC(=O)c1ccc(N2CCN(CC(O)COC(c3ccccc3)c3ccccc3C)CC2)cc1 (stereo not given)	i	7	9	-3	13	26	1	-4
Cc1ccc(C)c(OCCN2CCOCC2)c1	i	-6	-38	3	-4	-5	1	0
O=c1ccc(C(F)(F)F)cn1Cc1cc(=O)n2cc(Br)ccc2n1	i	/	3	0	-1	56	-1	-1	eIF4H FP inh retest=-12;PABP polyA inh retest=-1
Cc1ccc2cccc(NC(=O)C(F)(F)F)c2n1	i	-15	-33	-1	-5	6	2	10
SMILES	Rce1 inhib	Yeast UUG start	HIV Env fusion	CSC inhib	PABP polyA inh	eIF4H FP inh	MT1-MMP act inh	MT1-MMP act inh RFP	others
COc1ccc(C(=O)n2cc(C(C)=O)c3ccccc32)cc1	i	-25	-47	12	-8	5	-2	-6
COc1cc(OC)c(N(C)S(=O)(=O)c2cccc(C(=O)OCC(=O)NCc3ccco3)c2)cc1Cl	i	/	-2	27	18	-1	-1	-5
Cc1ccc(NC(=O)C(OC(=O)c2ccc(O)cc2)c2ccccc2)cc1Cl (stereo not given)	i	-14	-52	-14	-5	4	4	1
Cc1cc(N2CCN(c3cccc(C(F)(F)F)c3)CC2)n2nc(C)nc2n1	i	-15	/	-13	-6	0	2	-7
CC(=O)Nc1ccc(N2C(=O)CSC2c2ccccc2)cc1 (stereo not given)	i	1	1	-1	-8	-6	-1	0
CNc1nnc(-c2cc3ccccc3oc2=O)s1	i	-13	-264	-1	5	16	-7	3
Cc1ccc(NC(=O)OCc2cc(-c3ccccc3)on2)cc1	i	/	-13	11	-2	-4	-1	-1
CCN1CCN(C(CNS(=O)(=O)c2ccc(Cl)cc2)c2cccnc2)CC1 (stereo not given)	i	-20	2	-2	-7	7	-4	6
O=C(Cc1ccc(Cl)cc1)Nc1ccc2oc(=O)ccc2c1	i	-16	2	-4	0	-4	4	1
O=C(O)CN1C(=O)SC(Nc2ccccc2)C1=O (stereo not given)	i	-2	-10	-6	-8	-10	1	3
O=C1CC(c2ccccc2)CC(O)=C1C=NCCN1CCOCC1 (stereo not given)	i	-11	-4	-5	2	-2	-4	-2
CN1C[C@@H]2[C@@H]3C(=O)N(Cc4ccccc4)C(=O)[C@@H]3[C@](C)(C1=O)N2C(=O)c1ccc(Cl)cc1	/	-7	-3	/	/	/	6	0
COc1ccc(-c2nnc(CSc3nc4ccccc4c(=O)n3CC(C)C)o2)cc1OC	i	-7	/	34	0	1	-4	-1
Cc1ccc(C(=O)Nc2c3c(nn2-c2ccccc2)CS(=O)(=O)C3)cc1C	i	-12	-19	-6	-7	-5	-1	4
CC[C@@]1(C(=O)OC)N[C@H](CN(C)C(=O)c2ccccc2)[C@@H]2C(=O)N(C)C(=O)[C@@H]21	/	-6	-36	/	/	/	2	6
CN1CCN(S(=O)(=O)c2ccccc2)CC1	i	-17	-15	-13	8	-2	-1	1
COc1ccc(S(=O)(=O)n2[nH]c(=O)c(CCO)c2C)c([N+](=O)[O-])c1	i	-3	6	-5	-11	-1	3	-1
Cc1ccc(C2N=C(N)Nc3nc(=O)c4ccccc4n32)cc1 (stereo not given)	i	/	0	8	-2	-4	-3	2
Cc1nc(C(=O)N2CCc3c([nH]c4ccccc34)C2c2ccccn2)cs1 (stereo not given)	i	/	20	-14	8	6	4	3
O=C(COC(=O)C1C2CC3OC(=O)C1C3C2)Nc1cccc(C(F)(F)F)c1 (stereo not given)	i	-1	-8	-11	2	-3	-2	-3
COCCCNC(=S)N1CCN(C)CC1	i	-14	-4	-14	6	2	2	5
O=S(=O)(Nc1nc2ccccc2nc1NCc1ccco1)c1ccc(Cl)cc1	i	-12	/	/	23	13	-4	-10
CCOC(=O)N1CCC2(O)CCCCC2C1c1ccc(F)cc1 (stereo not given)	i	5	/	-12	-3	-4	3	2
CCNC(=O)C1CCCN(C(=O)c2ccc(N(C)C)cc2)CC1 (stereo not given)	/	-16	1	/	/	/	0	4
COc1ccc(C)cc1NC(=O)COC(=O)C1COc2ccccc2O1 (stereo not given)	/	-3	-7	1	/	/	0	2

Next section, overlapping the part above by 6 compounds.
SMILES	Rce1 inhib	Yeast UUG start	HIV Env fusion	CSC inhib	PABP polyA inh	eIF4H FP inh	MT1-MMP act inh	MT1-MMP act inh RFP	others
O=C(COC(=O)C1C2CC3OC(=O)C1C3C2)Nc1cccc(C(F)(F)F)c1 (stereo not given)	i	-1	-8	-11	2	-3	-2	-3
COCCCNC(=S)N1CCN(C)CC1	i	-14	-4	-14	6	2	2	5
O=S(=O)(Nc1nc2ccccc2nc1NCc1ccco1)c1ccc(Cl)cc1	i	-12	/	/	23	13	-4	-10
CCOC(=O)N1CCC2(O)CCCCC2C1c1ccc(F)cc1 (stereo not given)	i	5	/	-12	-3	-4	3	2
CCNC(=O)C1CCCN(C(=O)c2ccc(N(C)C)cc2)CC1 (stereo not given)	/	-16	1	/	/	/	0	4
COc1ccc(C)cc1NC(=O)COC(=O)C1COc2ccccc2O1 (stereo not given)	/	-3	-7	1	/	/	0	2
Cc1ccccc1CN1CCN(C(=O)CC(C)C)CC1	i	-12	-14	-9	9	10	-2	4
Cc1ccc(S(=O)(=O)NCC(c2ccccc2)N2CCN(CCC#N)CC2)cc1 (stereo not given)	i	-2	2	-4	1	0	-2	3
NC(=O)c1ncn([C@@H]2O[C@H](CNCc3ccccc3C#Cc3ccccc3)[C@@H](O)[C@H]2O)n1	/	-15	15	/	/	/	0	5
CCCCCN(C(=O)COC(=O)c1ccc(C)cc1)c1c(N)n(CCCC)c(=O)[nH]c1=O	/	-5	/	-11	/	/	-13	-12
O=c1[nH]cnc2c1N=C(c1cccc([N+](=O)[O-])c1)CC(c1ccccc1)N2 (stereo not given)	i	/	5	-9	3	-3	1	-2
NS(=O)(=O)c1cccc(NC(=O)CC23CC4CC(CC(Br)(C4)C2)C3)c1	i	-2	3	2	-12	-2	-1	0
CC1CC(C)CN(CCOc2cccc(Cl)c2Cl)C1 (stereo not given)	i	/	2	39	-2	3	4	6
Cn1c(-c2ccccc2)c[n+]2c1CCCCC2	i	/	-3	6	4	-7	-2	-3
N#Cc1ccc2c(=O)n(-c3ccccc3)sc2c1	/	-31	-13	/	/	/	6	-17
CCN1CCN(CCNC(=O)c2ccc3c(c2)N(Cc2cccc(Cl)c2)C(=O)c2ccccc2S3=O)CC1 (stereo not given)	i	-12	-5	1	/	/	-5	-2
CN(C)c1nc(N)nc(CSc2ccccn2)n1	i	17	-83	/	-7	-4	-1	2
O=C(NCCc1ccc(Cl)cc1)Nc1ccc(F)cc1	i	/	-1	-4	-2	-6	1	-2
Cc1ccc(NC(=O)CSC(C)c2nc3ccccc3c(=O)[nH]2)cc1 (stereo not given)	i	-19	-10	18	8	-1	-1	5
O=C(NC(c1ccc(-c2ccccc2)cc1)c1cnccn1)C1CCN(Cc2ccc(Cl)c(Cl)c2)CC1 (stereo not given)	/	-7	1	/	/	/	-4	-9
CCN(CC(=O)Nc1cccc(C(C)=O)c1)S(=O)(=O)c1ccccc1	i	4	-5	-8	9	1	3	4

Four structures out of the list, sorted by length of the SMILES, low to high:
SMILES	Rce1 inhib	Yeast UUG start	HIV Env fusion	CSC inhib	PABP polyA inh	eIF4H FP inh	MT1-MMP act inh	MT1-MMP act inh RFP	others
CN(C)c1nc(N)nc(CSc2ccccn2)n1	i	17	-83	/	-7	-4	-1	2
Cc1ccccc1CN1CCN(C(=O)CC(C)C)CC1	i	-12	-14	-9	9	10	-2	4
CCCCCN(C(=O)COC(=O)c1ccc(C)cc1)c1c(N)n(CCCC)c(=O)[nH]c1=O	/	-5	/	-11	/	/	-13	-12
O=C(NC(c1ccc(-c2ccccc2)cc1)c1cnccn1)C1CCN(Cc2ccc(Cl)c(Cl)c2)CC1 (stereo not given)	/	-7	1	/	/	/	-4	-9

Compound activity: PubChem BioAssay, several laboratories
